WNV NS2B-NS3 inh: inhibitors of West Nile virus NS2B-NS3 protease | z-score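 (tested at a level between 10 and 100 µM)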 | WNV NS2B-NS3 protease, fluorogenic substrate Ex360/Em465; stronger effect = lower value | actives 0.18% (n = 65,000) | P06935;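 active = z-score at -3 or under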;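 also: score is relative to mean and spread of the compound wells of a plate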
Target sequence (P06935 1371-1501 limits assumed): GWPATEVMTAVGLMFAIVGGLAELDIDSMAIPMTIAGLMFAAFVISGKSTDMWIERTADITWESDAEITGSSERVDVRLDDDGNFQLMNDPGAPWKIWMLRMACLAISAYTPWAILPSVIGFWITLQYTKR
Target sequence (P06935 1502-1679 limits assumed): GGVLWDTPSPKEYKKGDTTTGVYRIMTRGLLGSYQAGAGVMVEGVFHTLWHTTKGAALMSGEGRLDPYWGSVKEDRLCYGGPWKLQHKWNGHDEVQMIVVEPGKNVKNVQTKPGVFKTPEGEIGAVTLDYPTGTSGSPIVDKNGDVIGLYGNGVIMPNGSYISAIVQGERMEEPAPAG
MT1-MMP promoter: MT1-MMP gene expression reporter suppression – cell-based, luciferase reporter, luminescence (AID 618); MT1-MMP promoter luciferase reporter cells, luminescence; calls from a first round at 10 µM; hits with a dose series show EC50 in µM; actives 0.62% (n = 87,000);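 active = over half of the reporter light lost at 10 µM or EC50 under 50 µM; inactive = the rest and hits that failed the dose series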;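 also: actives suppress MT1-MMP promoter-driven transcription so potencies describe inhibitors; HT1080 fibrosarcoma cells; overnight exposure; toxic or luciferase-blocking compounds were not removed from the actives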
Hsc70: Hsc70 inhibitors, probe displacement, primary screen, biochemical, fluorescence polarization (AID 568). Hsc70 fluorescence polarization, probe displacement; higher % means a stronger effect; strong numbers were not always called active. 83,000 tested, under 10 active. one-dose displacement, % at 20 µM; IC50 in µM for titrated hits;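 active = displacement above 50% without optical interference and an IC50 on retest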;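 also: ATPase domain with a fluorescein-tagged ATP probe; 0% = vehicle and 100% = excess ADP; read after one hour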
An asterisk follows results filed as active; i = inactive; / = no result given. This is a subset; the hit share may differ from the screen's.

SMILES	WNV NS2B-NS3 inh	MT1-MMP promoter	Hsc70
O=C(CSc1nnc2scc(-c3ccccc3)n12)NCC1CCCO1 (stereo not given)	1.3	i	4.9%
COc1nc(OC)nc(N2CCC(C(=O)NCc3cccs3)CC2)n1	-0.68	i	1.1%
CC(C)c1nc2ccc(NC(=O)C3CCCCC3)cc2[nH]1	/	i	-1.5%
Cn1c(=O)c2c(nc(Oc3ccc(-c4ccccc4)cc3)n2C)n(C)c1=O	0.29	i	-1.5%
COCCCN1C(=O)C(=O)/C(=C(/O)c2ccccc2)C1c1ccc(N(C)C)cc1 (stereo not given)	-0.93	i	-4.2%
O=C(CSCc1ccc(Br)cc1)N1CCOCC1	-0.5	i	3.3%
Cc1nnsc1C(=O)NNS(=O)(=O)c1ccccc1	/	i	2.3%
N#CCCn1c(SCC(=O)NCc2ccco2)nc2ccccc21	/	i	2.4%
CC(NC(=O)c1ccco1)C(=O)Nc1nc(-c2ccccn2)cs1 (stereo not given)	2.2	i	6.0%
CC(C)(C)c1cc(CN2CCCCC2)cc(C(C)(C)C)c1O	/	i	-0.3%
O=C1C(=O)N(CCCn2ccnc2)C(c2cccnc2)/C1=C(/O)c1ccccc1 (stereo not given)	/	i	6.1%
Cn1cnnc1SCC(=O)c1c[nH]c2ccccc12	-1	i	0.5%
CCOCCCN(C(=O)c1ccco1)C(C(=O)NC1CCCC1)c1cccc(OC)c1OC (stereo not given)	-0.27	i	-3.0%
COc1ccc(CN2CCCCC2C)c(C)c1C (stereo not given)	-1.4	i	-5.8%
O=C(COC(=O)c1cccc(NC(=O)c2ccco2)c1)c1ccc(Br)cc1	-0.55	i	2.0%
Cc1ccc(S(=O)(=O)CC(C)N2CCN(C3CCCCC3)CC2)cc1 (stereo not given)	/	i	0.5%
CCOC(=O)c1cc2c(=O)n3cccc(C)c3nc2n(CC2CCCO2)c1=NC(C)=O (stereo not given)	1.9	i	-3.3%
COc1ccc(-c2nn3c(-c4ccc(F)cc4)nnc3s2)cc1	-0.3	i	-35%
CCOC(=O)CSc1nnc(-c2cccs2)n1-c1ccccc1	-0.12	i	10%
CN(C(=O)c1ccccc1)C1(C)CCS(=O)(=O)C1 (stereo not given)	-0.3	i	2.8%

Part of the list above with just WNV NS2B-NS3 inh and Hsc70:
| molecule | WNV NS2B-NS3 inh | Hsc70 |
| --- | --- | --- |
| CC(NC(=O)c1ccco1)C(=O)Nc1nc(-c2ccccn2)cs1 (stereo not given) | 2.2 | 6.0% |
| CC(C)(C)c1cc(CN2CCCCC2)cc(C(C)(C)C)c1O | / | -0.3% |
| O=C1C(=O)N(CCCn2ccnc2)C(c2cccnc2)/C1=C(/O)c1ccccc1 (stereo not given) | / | 6.1% |
| Cn1cnnc1SCC(=O)c1c[nH]c2ccccc12 | -1 | 0.5% |
| CCOCCCN(C(=O)c1ccco1)C(C(=O)NC1CCCC1)c1cccc(OC)c1OC (stereo not given) | -0.27 | -3.0% |
| COc1ccc(CN2CCCCC2C)c(C)c1C (stereo not given) | -1.4 | -5.8% |

The results go on:
SMILES	WNV NS2B-NS3 inh	MT1-MMP promoter	Hsc70
C=CCn1c(SCC(=O)C(C)(C)C)nnc1-c1ccccn1	-0.99	i	5.7%
CCc1ccc2nc(SCC(=O)N3CCCCC3)c(C#N)cc2c1	/	i	-5.4%
COCCNC(=O)c1noc2c1CCc1cc(OC)ccc1-2	-0.7	i	-4.2%
Cc1cccc(CSC2=NCCN2C(=O)c2ccc(Br)o2)c1	0.96	i	-0.3%
C[N+]1(C)CCC(=C2c3ccccc3CC(=O)c3sccc32)CC1	/	i	-1.5%
CCCCN(C)C(=O)CS(=O)(=O)Cc1nc(-c2cccc(OC)c2)oc1C	0.03	i	1.9%
Cn1cc(CC(=O)Nc2cccc(C#N)c2)c2ccccc21	-0.52	i	5.0%
CSc1ccccc1NC(=O)c1c(Br)cnn1C	-0.21	i	-4.5%
Cc1ccccc1C1CC(c2ccc(Br)cc2)Nc2nc(N)nn21 (stereo not given)	0.03	i	-3.2%
CC1CCCN(Cc2nc3c(c(=O)n(C)c(=O)n3C)n2Cc2c(F)cccc2Cl)C1 (stereo not given)	0.38	i	-6.0%
Cc1ccc(CN(N=Nc2nonc2N)c2nonc2N)c(C)c1	/	i	4.4%
COc1ccc(-c2cn3c(C)c(C(=O)NCc4ccc5c(c4)OCO5)sc3n2)cc1	3.6	i	6.0%
Cc1ccc(C(=O)NC2CC3CCCC(C2)N3C(=O)NC2CCCCC2)cc1 (stereo not given)	0.53	i	-4.9%
Cc1cc(C)cc(OCC(=O)Nc2nonc2NC(=O)COc2cc(C)cc(C)c2)c1	-0.87	i	-13%
CC1CCCCN1C(=O)CSCC(=O)Nc1nc(-c2cccs2)cs1 (stereo not given)	-0.93	i	5.2%
O=C(Cn1cc2c(n1)CCCC2)NCc1cccc(Cl)c1	2.2	i	2.9%
CCNC(=O)CSc1nnc(-c2ccc(OC)cc2)n1CC(C)C	/	i	1.5%
COc1cccc(NC(=O)CNC(=O)c2ccc(F)cc2)c1	0.45	i	7.7%
COCCCn1c(SCC(=O)NC(C)C)nnc1-c1ccccc1	-1.2	i	-10%
Cc1ccc(-n2cnnn2)c2cccnc12	0.1	i	-5.0%

Two records picked at random from those above:
SMILES	WNV NS2B-NS3 inh	MT1-MMP promoter	Hsc70
COc1cccc(NC(=O)CNC(=O)c2ccc(F)cc2)c1	0.45	i	7.7%
Cc1cccc(CSC2=NCCN2C(=O)c2ccc(Br)o2)c1	0.96	i	-0.3%

Next part:
SMILES	WNV NS2B-NS3 inh	MT1-MMP promoter	Hsc70
CC(=O)N=C1SC2CS(=O)(=O)CC2N1c1cccc(Cl)c1Cl (stereo not given)	-0.81	i	-2.1%
COc1ccc2c(c1)CCc1c(C(=O)NCc3ccc(F)cc3)noc1-2	-0.72	i	-3.2%
CCN(c1ccccc1)S(=O)(=O)c1ccc(N)c(OC)c1	/	i	-3.2%
Cc1cccc(-n2c(=O)cc(N3CCN(c4ccc(F)cc4)CC3)[nH]c2=O)c1	0.4	i	1.5%
CC(=O)OCc1nc2sc(C)c(C)c2c(=O)[nH]1	/	i	1.3%
N#CC1=C(N)SC(C(=O)c2ccccc2)C1c1cccs1 (stereo not given)	/	i	3.0%
CCCOc1ccc(C(=O)NCc2ccco2)cc1	-0.25	i	2.8%
O=C(Nc1nccs1)C1CCN(S(=O)(=O)c2ccc(Cl)c(C(F)(F)F)c2)CC1	/	i	-2.1%
CCCC(=O)Nc1ccc(C(=O)O)cc1NC(=O)CCC	-0.21	i	2.8%
O=C(CSc1nc2ccccc2c(=O)n1CC1CCCCC1)N1CCOCC1	0.1	i	-2.9%
CCN1CCN(c2ccc(NC(=O)c3ccc4c(c3)OCO4)cc2)CC1	-0.51	i	-5.5%
COCCOC(=O)C1=C(C)NC(=O)N(C(C)=O)C1c1ccc(Cl)cc1 (stereo not given)	0.19	i	5.3%
CN(c1ccccc1C(=O)N1CCN(c2cccc(Cl)c2)CC1)S(C)(=O)=O	0.6	i	8.2%
CCOc1ccc(NC2=NCC(=O)N2Cc2cccs2)cc1	/	i	-2.2%
CCC(C)[C@H](NC(=O)OC(C)(C)C)c1nnc(SCc2c(C)[nH]c(=O)[nH]c2=O)o1 (stereo not given in full)	/	i	0.3%
Cc1cccc(C(=O)NCCCN2CCCC2=O)c1	/	i	1.3%
CC(C)n1c(C(O)c2ccc3c(c2)OCO3)nc2ccccc21 (stereo not given)	0.15	i	4.7%
Cc1noc(C)c1CSCC(=O)OCc1nc2ccccc2c(=O)n1CC#N	-1.1	i	-3.7%
COC(=O)C(C)Sc1nc2c(c(=O)[nH]c(=O)n2C)n1CCC(C)C (stereo not given)	-0.16	i	-4.7%
CC(c1ccccc1)C1NC(C(=O)O)CS1 (stereo not given)	0.84	i	3.1%

(list continues)
compound,WNV NS2B-NS3 inh,MT1-MMP promoter,Hsc70
O=C(Cn1c(C(F)(F)F)nc2ccccc21)NCCCN1CCOCC1,/,i,-3.1%
CC1CCN(CCn2c(=S)[nH]c3ncccc3c2=O)CC1,-0.41,i,-2.2%
O=C1CC(N2CCCCCC2)C(=O)N1c1ccc2c(c1)OCO2 (stereo not given),-1.1,i,-4.6%
CCOc1cc(C(=O)N2CCCC2)cc(OCC)c1OCC,-0.53,i,5.8%
CCc1nc2oc3ccccc3c(=O)c2c(=O)n1Cc1ccccc1,-0.75,i,1.9%
CC(C)(C)NC(=O)CN(C(=O)CCN1CCCc2ccccc21)C(C)(C)C,-0.63,i,-0.9%
CCOCC(=O)Nc1nnc(SCCOC)s1,-0.15,i,6.6%
CC1CCCCC1NC(=O)CC1Oc2ccccc2NC1=O (stereo not given),0.26,i,21%
CCc1ccc2oc(-c3cc(N)ccc3Cl)nc2c1,1.3,i,2.2%
CCCCOc1ccc(C(=O)Nn2cnnc2)cc1,-0.04,i,5.0%
Cc1ccc2nc(-c3ccc(SCC(=O)Nc4cc(C)on4)nc3)[nH]c2c1,0.31,i,-0.7%
CCOc1ccc2[nH]c(=O)c(CN(Cc3ccco3)C(=O)c3ccc(Br)cc3)cc2c1,-1.4,i,-6.4%
COC(=O)c1ccc(C(=O)OC)c(NC(=O)CSc2cccc[n+]2[O-])c1,/,i,-0.1%
CC(C)C[C@H](N)c1nnc(S(=O)(=O)Cc2cccc(F)c2)o1,1.2,i,4.1%
COc1cc(-c2cc(C(F)(F)F)n3ncc(C(=O)O)c3n2)cc(OC)c1OC,-0.77,i,3.7%
CCCC(=O)N=c1sc2cccc(F)c2n1C,0.88,i,-4.1%
Cc1c(NS(=O)(=O)CC23CCC(CC2=O)C3(C)C)c(=O)n(-c2ccccc2)n1C (stereo not given),0.89,i,-1.4%
O=C(O)c1ccccc1C(=O)c1cccs1,0.25,i,5.0%
CCCCS/C(N)=N/N=C/c1cc(C)ccc1O,/,i,-3.3%
Nc1nonc1-c1noc(COc2ccccc2Cl)n1,0.98,i,0.8%
COc1ccc(C(=O)CSc2nnc(Cc3ccccc3)o2)cc1,1.4,i,-8.0%
c1ccc(-c2nn3c(C4COc5ccccc5O4)nnc3s2)cc1 (stereo not given),-1.1,i,2.0%
Cc1nccn1CC(=O)O,-1,i,-1.0%
CCC(C)NC(=O)C1CCN(C(=O)N(C)C)CC1 (stereo not given),1.4,i,-5.3%
COc1ccc(OC)c2[nH]c(C(=O)O)cc12,/,i,2.2%
CCOc1ccc(-c2nc(N)nc(C)c2-c2ccc(OC)c(OC)c2)c(O)c1,-0.78,i,1.2%
Cc1cc(C(=O)COC(=O)CCc2nc3ccccc3s2)c(C)n1C,-0.54,i,0.7%
COC(=O)Cc1c(C)c2ccc(OCC(=O)N(C)C)cc2oc1=O,/,i,4.4%
CCCc1cc(=O)[nH]c(SC(CC)C(=O)Nc2ccccc2C#N)n1 (stereo not given),-0.21,i,0.7%
Cn1c(SCc2ccccc2Cl)nc2ccccc21,/,i,4.2%

Single values from the list.
In WNV NS2B-NS3 inh, CCOc1ccc(-c2nc(N)nc(C)c2-c2ccc(OC)c(OC)c2)c(O)c1 is entered as -0.78
In WNV NS2B-NS3 inh, CC(C)(C)NC(=O)CN(C(=O)CCN1CCCc2ccccc21)C(C)(C)C is entered as -0.63

(further entries)
compound,WNV NS2B-NS3 inh,MT1-MMP promoter,Hsc70
O=C(CSc1ncccc1C(=O)O)NCCC1=CCCCC1,0.67,i,3.2%
COc1ccc(C2C3=C(CC(c4ccco4)CC3=O)Nc3ccccc3N2C(C)=O)cc1 (stereo not given),-0.64,i,16%
C=C(C)CSc1nc2c(c(=O)[nH]c(=O)n2C)n1CCC(C)C,0.75,i,5.8%
CCCS(=O)(=O)N1CCCC(C(=O)N2CCN(C(=O)OCC)CC2)C1 (stereo not given),-1,i,-0.2%
Cc1cc2cc(CCNC(=O)c3ccc(S(=O)(=O)N4CCOCC4)cc3)c(=O)[nH]c2cc1C,0.17,i,2.3%
O=C(COC(=O)c1ccccc1)Nc1ccccc1N1CCOCC1,/,i,-0.4%
CCCCOc1ccc(C2(C)CC(=O)NC2=O)cc1 (stereo not given),1.6,i,-3.9%
Fc1ccc(-c2nnc(CSc3nnc(-c4cccs4)o3)o2)cc1,/,i,-6.1%
CSc1nc(-c2ccccc2O)nc(-c2ccccc2O)n1,-0.56,i,-0.8%
CC(=O)Cc1nsc(NC(=O)c2ccc(-c3ccc(Cl)c(C(F)(F)F)c3)o2)n1,-0.82,i,0.4%
CCN(CC)c1ccc(NC(=O)c2nc3nc(C)cc(C(F)F)n3n2)cc1,0.02,i,-3.1%
Cc1ccc(-c2csc(N(CC3CCCO3)C(=O)c3ccco3)n2)cc1 (stereo not given),0.35,i,-8.2%
COc1ccc(C2CC(=O)c3cnc(NC(=O)c4ccccc4)nc3C2)cc1OC (stereo not given),-0.24,i,2.4%
O=C(NC1CCCC1)C(c1cccs1)N(C(=O)c1ccco1)c1ccc2c(c1)OCCO2 (stereo not given),-0.43,i,-1.9%
CC1CN(Cc2nc3c(c(=O)[nH]c(=O)n3C)n2CCN2CCOCC2)CC(C)O1 (stereo not given),-0.26,i,0.8%
CN(C)c1ccc(CNC(=O)CN(C)S(=O)(=O)c2cccc3cccnc23)cc1,0.6,i,4.5%
Cc1c(NC(=O)C2CCN(S(=O)(=O)c3ccccc3)CC2)c(=O)n(-c2ccccc2)n1C,-0.23,i,5.2%
O=C(NCC(c1cccnc1)N1CCOCC1)Nc1ccccc1 (stereo not given),0.33,i,-1.8%
